AID504770: E. coli YBA685 growth inhibition, screen for V. cholerae RctB inhibitors. E. coli YBA685 rctB-dependent plasmid, OD600 growth, 3 h; active compounds read low. hit rate 0.27% among 130,000. z-score (no concentration beside the values);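 active = z-score under -2 on both plates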;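 note: wells of about 30 µL received 100 nL stock; score is relative to mean and SD of the test wells; the first replicate is given; strong numbers were not always called active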
Ba CapD inh: inhibitors of Bacillus anthracis CapD enzyme | purified CapD enzyme, fluorescence intensity read-out; active compounds read low; some hits fall short of the stated cut | z-score (test concentration not listed) | hit rate 0.23% among 140,000;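 active = z-score under -4 in either of two replicates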;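 note: stock transfer was 100 nL into about 40 µL; score is relative to mean and spread of the plate; one replicate is shown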
* marks the source's active call; other numbers are inactive results; x = not tested or not shown.

Start of the listing, in advance:
SMILES	AID504770	Ba CapD inh
COc1ccc(C2CC(=O)C3=C(C2)Nc2ccccc2NC3c2coc3ccccc3c2=O)cc1 (stereo not given)	x	0.46
Cc1ccc(NC(=O)c2ccc3nc[nH]c3c2)c(O)c1	-0.35	x
O=C1/C(=N/NC(=O)C2COc3ccccc3O2)c2cccc3cccc1c23 (stereo not given)	1.6	x
CCc1ccc(-c2nn(-c3ccccc3)c(=S)c3ccccc23)cc1	-0.1	-0.815

Main list, repeating the preview:
SMILES	AID504770	Ba CapD inh
COc1ccc(C2CC(=O)C3=C(C2)Nc2ccccc2NC3c2coc3ccccc3c2=O)cc1 (stereo not given)	x	0.46
Cc1ccc(NC(=O)c2ccc3nc[nH]c3c2)c(O)c1	-0.35	x
O=C1/C(=N/NC(=O)C2COc3ccccc3O2)c2cccc3cccc1c23 (stereo not given)	1.6	x
CCc1ccc(-c2nn(-c3ccccc3)c(=S)c3ccccc23)cc1	-0.1	-0.815
Cc1cc(=O)oc2c3c(ccc12)O/C(=C/C=C/c1ccccc1)C3=O	-0.05	-0.48
Cc1ccc(NC(=S)NCC2CCCO2)cc1 (stereo not given)	-0.35	0.87
COc1ccc(CNC(=S)N(Cc2nnc(-c3ccccc3Cl)o2)C2CC2)cc1	0.3	x
CC(=O)Nc1ccccc1OCC(=O)N(C(C)C)C(C)C	0.95	-0.17
O=C(CSC1CCCCC1)N1CCOCC1	-0.55	0.305
COc1ccc(C)c2sc(NNC(=O)C3=COCCO3)nc12	0.1	x
NC(=S)c1cc2cccc3c2n(c1=O)CC3	x	1.17
CN1C(=O)C(=CN2CCc3ccccc32)C(=O)N(C)C1=O	0.9	x
Fc1ccc(NC(=S)Nc2cc(C(F)(F)F)ccc2N2CCCC2)cc1Cl	0.75	0.01
C=CCSc1ncnc2c1sc1nc(C)cc(C)c12	0.1	1.48
CN1C(=O)C(O)N(c2ccccc2)C1=O (stereo not given)	-0.25	-0.355
O=C(Cn1c(N2CCN(c3ccc(F)cc3)CC2)nc2ccccc21)c1ccccc1	-0.85	x
CC(C)CCNC(=O)c1cn(C)c2ccc(S(=O)(=O)N3CCC(C)CC3)cc2c1=O	-0.1	-1.19
COC(=O)c1ccc(COC(=O)COc2ccc(C#N)cc2)o1	-0.15	x
Cc1ccc(Sc2ncccc2NC(=O)Cc2ccccc2)cc1	-0.5	0.385
C=CCn1c(SCc2nc3ccccc3[nH]2)nnc1-c1ccco1	0.9	1.82
O=c1c2ccccc2nc2sc3ccc(Cl)cc3n12	x	1.18
Cc1ccc(NC(C(=O)O)c2ccccc2)cc1 (stereo not given)	-0.25	0.76
CCn1c(-c2ccccc2)cnc1SCC(=O)c1sc2c(c1C#N)CCCC2	0.15	x
COCc1nc2ccc(C)cc2c2c1C(=O)N(CCN1CCOCC1)C2=O	x	0.69
C=CCSc1nc2sc3c(c2c(=O)[nH]1)CCCC3	0.6	0.355

A different layout for part of the listing above:
Results follow in this order: AID504770, Ba CapD inh
COc1ccc(C2CC(=O)C3=C(C2)Nc2ccccc2NC3c2coc3ccccc3c2=O)cc1 (stereo not given)
    x, 0.46
Cc1ccc(NC(=O)c2ccc3nc[nH]c3c2)c(O)c1
    -0.35, x
O=C1/C(=N/NC(=O)C2COc3ccccc3O2)c2cccc3cccc1c23 (stereo not given)
    1.6, x
CCc1ccc(-c2nn(-c3ccccc3)c(=S)c3ccccc23)cc1
    -0.1, -0.815
Cc1cc(=O)oc2c3c(ccc12)O/C(=C/C=C/c1ccccc1)C3=O
    -0.05, -0.48
Cc1ccc(NC(=S)NCC2CCCO2)cc1 (stereo not given)
    -0.35, 0.87
COc1ccc(CNC(=S)N(Cc2nnc(-c3ccccc3Cl)o2)C2CC2)cc1
    0.3, x
CC(=O)Nc1ccccc1OCC(=O)N(C(C)C)C(C)C
    0.95, -0.17
O=C(CSC1CCCCC1)N1CCOCC1
    -0.55, 0.305
COc1ccc(C)c2sc(NNC(=O)C3=COCCO3)nc12
    0.1, x
NC(=S)c1cc2cccc3c2n(c1=O)CC3
    x, 1.17
CN1C(=O)C(=CN2CCc3ccccc32)C(=O)N(C)C1=O
    0.9, x
Fc1ccc(NC(=S)Nc2cc(C(F)(F)F)ccc2N2CCCC2)cc1Cl
    0.75, 0.01
C=CCSc1ncnc2c1sc1nc(C)cc(C)c12
    0.1, 1.48
CN1C(=O)C(O)N(c2ccccc2)C1=O (stereo not given)
    -0.25, -0.355
O=C(Cn1c(N2CCN(c3ccc(F)cc3)CC2)nc2ccccc21)c1ccccc1
    -0.85, x
CC(C)CCNC(=O)c1cn(C)c2ccc(S(=O)(=O)N3CCC(C)CC3)cc2c1=O
    -0.1, -1.19
COC(=O)c1ccc(COC(=O)COc2ccc(C#N)cc2)o1
    -0.15, x
Cc1ccc(Sc2ncccc2NC(=O)Cc2ccccc2)cc1
    -0.5, 0.385
C=CCn1c(SCc2nc3ccccc3[nH]2)nnc1-c1ccco1
    0.9, 1.82
O=c1c2ccccc2nc2sc3ccc(Cl)cc3n12
    x, 1.18
Cc1ccc(NC(C(=O)O)c2ccccc2)cc1 (stereo not given)
    -0.25, 0.76

Continuation:
SMILES	AID504770	Ba CapD inh
CC(C)OC(=O)Cn1nnc(-c2ccccc2)n1	-0.75	x
CCN(C(=O)c1ccc(Br)cc1)c1ccccc1	-0.4	x
CCCCC(=O)N1c2ccc(C)cc2C2=C(SC(C(=O)OC)=C(C(=O)OC)C23SC(C(=O)OC)=C(C(=O)OC)S3)C1(C)C	x	0.165
NC(=O)C12CCCC(Br)(CCC1)C2	-1	-0.015
CNC(=O)Nc1cc(C(C)(C)C)no1	-0.9	-0.08
O=C(NC(C(=O)O)C12CC3CC(CC(C3)C1)C2)C1CCCCC1 (stereo not given)	0.3	x
CC(C)(C)c1nnc(Nc2ccc(Cl)c(C(F)(F)F)c2)[nH]c1=O	-0.85	0.255
O=C1CSC2(C(=O)N(CN3CCN(c4ccc([N+](=O)[O-])cc4)CC3)c3ccccc32)N1c1cccc(Cl)c1 (stereo not given)	x	1
N#CC1=C(N)Oc2n[nH]c(-c3ccc4c(c3)OCO4)c2C1c1cccc(OC(=O)c2cccs2)c1 (stereo not given)	x	0.645
COc1cc(C=NNC(=O)c2ccccc2NC(=O)c2cccs2)cc(OC)c1OC(C)=O	x	4.47
CCOc1cc(/C=C2\N=C(c3ccc(Br)cc3)OC2=O)ccc1OC(C)=O	x	1.54
C=CCn1c(COc2ccc(CC)cc2)nnc1SCC(=O)c1cc(C)n(CCOC)c1C	-2.35	x
C=CCN1C(=O)NC(=O)/C(=C/c2ccc(OCC(=O)O)c(OCC)c2)C1=O	-0.2	x
CCc1ccc(/C=c2/sc3n(c2=O)C(N)=C(C#N)C(c2ccc(CC)cc2)C=3C#N)cc1 (stereo not given)	x	0.24
Cc1cc(C(=O)CSc2nnc(NC3CC3)s2)c(C)s1	-0.35	x
NC(=O)COC(=O)CCc1nc2ccccc2s1	-0.4	x
O=c1[nH]nc(SCc2ncc(C(F)(F)F)cc2Cl)n1-c1ccccc1	-0.05	0.18
N#CC(C#N)=C(N)CSc1ccc(Cl)cc1	-0.75	-0.595
CCCOC(=O)C(CC)Oc1ccc2c(=O)c(Oc3ccccc3Br)coc2c1 (stereo not given)	x	-0.615
COc1ccc(CN(C)c2nc(-c3cccnc3)nc3ccccc23)cc1OC	-0.4	x
COc1nc(N)nc(C(C)(C)C)n1	x	0.39
CC(C)(C)SCCNC(=O)c1ccco1	x	-0.315
CCCSc1nnc(CNC(=O)C23CC4CC(CC(C4)C2)C3)n1CC	-1.05	-0.175
NC(=O)C1CCCN(S(=O)(=O)c2ccccc2)C1 (stereo not given)	-0.45	0.02
COc1cc(C(c2c(C)[nH]n(-c3ccccc3)c2=O)c2c(C)[nH]n(-c3ccccc3)c2=O)ccc1OCc1ccccc1Cl	x	-0.92
O=C(NCc1cccs1)C1=CC=CN2CCS(=O)(=O)N=C12	-1.25	x
C/C(Nc1ccccc1C)=C1/CCOC1=O	0.7	-0.555
COc1cc(/C=C2\SC(=S)N(CCC(=O)Nc3ccc(C(=O)O)cc3)C2=O)cc(OC)c1OC	x	-1.35
COc1ccc(OCCN(C)C(=O)c2cccc3cccnc23)cc1	0.5	x
COC(=O)c1cn(CCC#N)nc1-c1ccc2ccccc2c1	0.55	x

Source: PubChem BioAssay
